Screening results from PubChem.
HPGD block – blocks human HPGD enzyme activity | P15428 | purified HPGD, NADH fluorescence kinetic, PGE2 substrate | hit rate 4.3% among 150,000 | Potency, µM, for the others: at the top dose activity change, negative = inhibition, hits mostly inhibitors | AID 894; active = well fitted inhibition curve with a large enough effect (not every such curve was filed as active); inconclusive = small, poorly fitted or top-dose-only effect, or another doubt; inactive = no such curve, though single readings can be large or run the other way;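 further: top concentration of the series not given in the record; plate controls included wells without enzyme; inactives centre near -10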
Target sequence (P15428 whole entry, looked up): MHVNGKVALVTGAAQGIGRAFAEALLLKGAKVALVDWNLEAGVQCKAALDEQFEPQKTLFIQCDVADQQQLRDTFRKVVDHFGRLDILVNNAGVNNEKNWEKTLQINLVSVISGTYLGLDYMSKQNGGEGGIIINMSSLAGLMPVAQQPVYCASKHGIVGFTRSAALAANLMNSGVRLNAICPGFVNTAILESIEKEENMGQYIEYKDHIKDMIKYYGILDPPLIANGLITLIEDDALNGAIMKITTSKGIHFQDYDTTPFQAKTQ
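20 nM HPGD preincubated 15 min at room temperature with compound in 50 mM Tris-HCl pH 8, 0.01% Tween 20. Started with 1 mM NAD+ and 30 uM prostaglandin E2; NADH fluorescence (360/450 nm) read 5 times over 30-s intervals, last minus first.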
Starred values were filed as active, the others as inactive; ? = inconclusive. On the % scale 0 is the no-effect control and ±100 the full control effect; potency means the concentration at half of the fitted maximal effect.

SMILES	HPGD block
O=C(O)c1nn(-c2ccccc2-c2n[nH]c(=O)[nH]c2=O)c(=O)[nH]c1=O	-7%
C=CCn1c(SC)nc2sc3c(c2c1=O)CCc1ccccc1-3	-5%
O=S(=O)(c1ccc(F)cc1)N1CC2CCCN2c2ccc(C(F)(F)F)cc21 (centres undefined)	-13%
CCCS(=O)(=O)N1CCC(C(=O)NCCCOC)CC1	-18%
O=C(CN1C(=O)NC2(CCCCCCC2)C1=O)N1CCN(C(=O)c2ccco2)CC1	1%
COCCOC(=O)c1ccccc1C(=O)OCCOC	-6%
CCOc1ccccc1-n1nnnc1SCC(=O)NC(=O)NCc1ccco1	-7%
CCN1CCN(c2nc3c(c(=O)n(C)c(=O)n3C)n2Cc2cccc3ccccc23)CC1	0%
CCN1C(=O)c2cccc3c(S(=O)(=O)NCCCN4CCOCC4)ccc1c23	-20%
CCC(=O)N(Cc1cc2cc(C)c(C)cc2[nH]c1=O)C1CCCCC1	-19%
N#Cc1c(-c2ccccc2)nc(-c2ccccc2)[nH]c1=O	2µM*
COc1cccc(C2N(c3cccc(Cl)c3)C(=O)C3CCCN32)c1OC (centres undefined)	-1%
CCc1cc2c(=O)c(-c3ccc4c(c3)OCCO4)coc2cc1OS(C)(=O)=O	-23%
Cc1cccc(C)c1Nc1nnc(SCC(=O)Nc2cc(S(=O)(=O)N3CCCCC3)ccc2Cl)s1	-12%
Cc1ccc(C(c2sc3nc(C)nn3c2O)N2CCN(c3ccccc3F)CC2)cc1 (centres undefined)	-15%
O=C(Cn1cnc2ccccc2c1=O)NCC1COc2ccccc2O1 (centres undefined)	-10%
COC(=O)c1c(NC(=O)/C=C/C(=O)O)sc(Cc2ccccc2)c1C	-7%
CC(C)(SCc1ccccc1)[C@H](N)C(=O)O	2%
COC(=O)C1=C(C)N(Cc2ccc(C)cc2)C(=O)/C1=C\c1cc(OC)c(OC)c(OC)c1	-9%
CC(C)(C)Sc1ccc2nc3c(n2c1)CCCC3	?
CC1CN(C2CCN(C(=O)c3cccc(Cl)c3)CC2)CC(C)O1 (centres undefined)	-3%
CCOC(=O)c1c(NC(=O)c2ccc(N3C(=O)C4C5C=CC(C5)C4C3=O)cc2)sc2c1CCCC2 (centres undefined)	?
CC(=O)Nc1ccc(C(=S)NCc2ccco2)cc1	?
O=C(NC1CCCCCC1)c1c(O)c2cccc3c2n(c1=O)CCC3	-5%
COc1ccc2nc(N3CCOCC3)cc(C)c2c1	?
COc1cc(N=c2c([N+](=O)[O-])nn(-c3ccc4c(c3)OCCO4)n2O)cc(OC)c1	-5%
Nc1cc(Cl)ccc1C(=O)OCC(=O)NC(=O)NCc1ccccc1	?
Cc1nn(-c2ccc(Cl)cc2)c2[nH]c(=O)c(CNCc3ccc4c(c3)OCO4)cc12	?
CC(C)c1ccc(-c2nnc(N)s2)cc1	35µM*
O=C(O)/C=C\C(=O)Nc1ccccc1C#Cc1ccccc1	-26%

Records listed so far printed as active in HPGD block.
SMILES	HPGD block
N#Cc1c(-c2ccccc2)nc(-c2ccccc2)[nH]c1=O	2µM*
CC(C)c1ccc(-c2nnc(N)s2)cc1	35µM*

The listing continues:
SMILES	HPGD block
O=C(Nc1nc2ccccc2n1CCOc1ccccc1)c1ccco1	?
Cc1ccc(S(=O)(=O)NC(=O)N2CCCC(C)(C)C2)cc1	-5%
CS(=O)(=O)c1ccc2nc(NC(=O)CN3CCN(Cc4ccccc4)CC3)sc2c1	-9%
CCSc1ncnc2c1sc1nc(-c3ccco3)c3c(c12)CC(C)(C)OC3	-21%
O=C1NC(Cc2c[nH]c3ccccc23)C(=O)N1CCOc1ccc(F)cc1 (centres undefined)	-10%
COc1ccc(OC)c(N(CC(=O)N2CCc3ccccc3C2)S(C)(=O)=O)c1	-37%
Fc1cccc(NC(=S)NCCCN2CCOCC2)c1	-2%
C=CCn1c(N)cc(=O)nc1SCC(=O)Nc1ccc2ccccc2c1	-7%
COc1ccc(-n2c(Cc3cccn3C)nnc2SCC(N)=O)cc1	-8%
O=C(/C=C/Nc1cccc(O)c1)c1ccccc1	-16%
O=C(c1cccs1)N1CCC(Cc2ccccc2)CC1	-9%
CCCC(=O)NNc1c2ccccc2nc2ccccc12	-1%
CCC(C)NC(=O)c1ccccc1NC(=O)CN(c1ccc(OC)cc1)S(C)(=O)=O (centres undefined)	-16%
COc1ccc(NS(=O)(=O)c2ccc(O)c(NC(=O)c3cc4c(C)nn(-c5ccc(F)cc5)c4s3)c2)cc1	?
CCC1(C)NC(=O)N(CC(=O)Nc2sc3c(c2C(N)=O)CCC3)C1=O (centres undefined)	-21%

Three entries already listed, sorted by their value in HPGD block, descending.
SMILES	HPGD block
O=C(c1cccs1)N1CCC(Cc2ccccc2)CC1	-9%
O=C1NC(Cc2c[nH]c3ccccc23)C(=O)N1CCOc1ccc(F)cc1 (centres undefined)	-10%
CCC1(C)NC(=O)N(CC(=O)Nc2sc3c(c2C(N)=O)CCC3)C1=O (centres undefined)	-21%

More results follow:
SMILES	HPGD block
C[C@@H]1C(=O)O[C@H]2[C@@H](O)[C@@]34[C@H]5CC(C(C)(C)C)[C@]36[C@@H](OC(=O)[C@@H]6O)O[C@@]4(C(=O)O5)[C@@]12O (some centres undefined)	0%
COc1cc(C(=O)NC(=S)NNC(=O)c2cnccn2)cc(OC)c1OC	?
S=C(Nc1ccccc1)N1N=CCC1c1ccccc1 (centres undefined)	0%
COc1cc(C2NCC(c3ccc(Cl)cc3Cl)c3c2[nH]c2ccccc32)cc(OC)c1OC (centres undefined)	-11%
O=C(CCCCn1c(=S)[nH]c2ccsc2c1=O)NCc1ccco1	14µM*
COCCn1c(SCC(=O)Nc2ccc3c(c2)OCCO3)nnc1-c1c[nH]c2ccccc12	-6%
CC1CCN(c2nc(-c3cccnc3)nc3scc(-c4ccccc4)c23)CC1	-27%
COc1ccc(CNC(=O)C(CCSC)NC(=O)c2ccco2)cc1 (centres undefined)	-3%
CC(O)COC(C)(C)C (centres undefined)	-8%
O=C(NCc1ccc2c(c1)OCO2)C(=O)NC1CCCCC1	-2%
COc1ccccc1Nc1ncc(C(=O)N2CCC(C(N)=O)CC2)c2ccccc12	-17%
O=C(CCCCC(=O)NCc1cccs1)NCc1cccs1	-5%
N#C/C(=C\c1ccc(-c2ccccc2Cl)o1)C(=O)Nc1nc2ccccc2s1	-19%
COc1cc(NC(=O)c2ccc(Cl)cc2Cl)ccc1-c1cc2ccccc2oc1=O	?
COCC(N)(c1ccccc1)c1nc2ccccc2n1C (centres undefined)	-5%
C[C@@H]1c2ccccc2Cn2cc3c(c21)C(=O)c1cccc(OP(=O)(O)OCc2ccccc2)c1C3=O	-26%
Cc1ccc(C2=C(Cl)C(=O)C(c3ccc(C)cc3)=C(Cl)C2=O)cc1	2.2µM*
Cc1ccc(NC(=O)c2ccc(NS(=O)(=O)c3c(C)noc3C)cc2)cc1C	-12%
Cc1ccc(C)c(SCC(=O)NC(=O)Nc2ccc3c(c2)OCCO3)c1	-12%
CN(CC(=O)Nc1nc2ccc(F)cc2s1)S(=O)(=O)c1ccc(Cl)cc1	-15%
O=C(O)[C@H](CO)Nc1ncnc2sc3c(c12)CCC3	-17%
COc1ccc(Nc2cc(C)nc3nc(C)nn23)c(OC)c1	8.9µM*
COc1ccc(CNC2=CC(=O)CC(C)(C)C2)cc1	-4%
CCCCOc1ccc(/C=N/NC(=S)Nc2cc(C)ccc2C)cc1	-12%
CCOC(=O)C1=C(C)N=C(/N=C/N(C)C)SC1c1ccccc1 (centres undefined)	-7%
CC(=O)c1c(C)[nH]c(C(=O)NCCc2ccccc2)c1C	-13%
CC(C)C(=O)Nc1ccc(Cc2ccc(NC(=O)C(C)C)c(O)c2)cc1O	-9%
CCCCN(CCCC)C(=S)NC(=O)C(C)(C)C	-3%
CCCCCCCC1(C)NC(=O)N(c2ccccc2)N1 (centres undefined)	-14%
O=C1c2oc3ccc(Br)cc3c(=O)c2C(c2cccnc2)N1Cc1ccco1 (centres undefined)	-19%
CCC1=C(OC(=O)N(CC)CC)N2C(=O)OC(=NCCc3c[nH]c4ccccc34)[C@]2(Cc2ccccc2)[C@H]2C1=CC[C@H]1C(=O)N(C)C(=O)[C@H]12	-7%
Cc1cccc(-c2cccc(-c3cc(=O)oc4cc5c(cc34)OCO5)c2)c1	?
O=C(c1ccc(N2CCCCC2)c([N+](=O)[O-])c1)N(Cc1ccccc1)c1ccccn1	-9%
CC(=O)Oc1cccc(/C=c2\sc3nc(-c4ccco4)nn3c2=O)c1	-23%
CSc1ccc(NC(=O)N2CC(C)OC(C)C2)cc1 (centres undefined)	-8%
Cc1nn(Cc2c(F)c(F)c(F)c(F)c2F)c(C)c1NC(=O)c1cccc(COc2ccc(Cl)cc2)c1	-6%
Cc1ccc(C)c(Cc2c(C)nc(C)[nH]c2=O)c1	-6%
N#Cc1cccc(CS(=O)(=O)c2nc3ccccc3s2)c1	-6%
COc1ccc(C(CCc2ccc(C)o2)NC(=O)Nc2ccc(OC)cc2OC)cc1 (centres undefined)	-15%
O=C(NC(=S)N1CCCCC1)c1cccnc1	-7%
O=S(=O)(NCc1ccccc1)c1cccs1	-10%
CCC(NC(=O)c1ccccc1NC(=O)c1ccc(OC)cc1)C(=O)N1CCCC1 (centres undefined)	-6%
O=C(NNC(=S)Nc1ccccc1)C1CC1	-2%
Cc1nn(C)cc1/C=C1\SC(=S)NC1=O	-23%
CCOC(=O)c1ccc(NC(=O)c2nn(CC)cc2Br)cc1	-9%
CC1(C)CC(=O)c2cnc(NC(=O)CCc3ccccc3)nc2C1	-3%
COc1cccc(N2CCN(C(=O)c3ccc4nc(N5CCCCC5)sc4c3)CC2)c1	?
COC(=O)c1ccc(C(C(=O)NCc2ccccc2)N(Cc2ccco2)C(=O)c2cnccn2)cc1 (centres undefined)	1%
N#Cc1c(-c2ccccc2)cc(-c2ccccc2)nc1Br	-18%
CCOc1ncccc1C(=O)NCc1ccc(OC)c(OC)c1	-13%
CCOc1ccc(CC(=NCCO)C2=C(O)CC(C)(C)CC2=O)cc1OCC	-16%
CC(C)(Oc1ccc(Cl)cc1)C(=O)Nc1ccncc1	-10%
COc1ccc2nc(NC(=O)CSc3nnnn3C3CCCCC3)sc2c1	-17%
Cc1oc2c(c1C(=O)N1CCC(C)CC1)C(=O)c1ccccc1C2=O	-2%
COc1ccc(OC(C)C(=O)Nc2ccccc2C(F)(F)F)cc1 (centres undefined)	-8%
CCCc1nc(SCc2cccnc2)c2c(=O)n(C)c(=O)n(C)c2n1	-5%
COc1cc(N2CCCC2)c(OC)cc1/C=C(/C#N)c1cccc(F)c1	-25%
O=C(Nc1ccccc1)c1c(F)c(F)c(F)c(F)c1F	-13%
CC(C)CC(NC(=O)C1CCC(C)CC1)C(=O)Nc1ccc2c(c1)OCCO2 (centres undefined)	-9%
O=C(COc1ccc(Cl)cc1)NCc1nnc2c3ccccc3c(-c3ccccc3)nn12	-18%

The list goes on; the last 2 above are carried over.
SMILES	HPGD block
CC(C)CC(NC(=O)C1CCC(C)CC1)C(=O)Nc1ccc2c(c1)OCCO2 (centres undefined)	-9%
O=C(COc1ccc(Cl)cc1)NCc1nnc2c3ccccc3c(-c3ccccc3)nn12	-18%
Cc1ccccc1N(CC(=O)NCCSCc1ccco1)S(C)(=O)=O	-1%
Cn1c(SCC(=O)Nc2ccccc2)nnc1-c1ccc(NC(=O)CCc2ccccc2)cc1	-3%
CCOC(=O)c1ccc(NC(=O)CC2C(=O)N(c3ccc(F)cc3)C(=O)N2CCC(C)C)cc1 (centres undefined)	-15%
C=CCn1c(SCc2ccc3c(c2)OCO3)nc2scc(-c3ccco3)c2c1=O	-5%
COC(=O)c1cccc(N2C(=O)C(Cl)=C(N3CCOCC3)C2=O)c1	-23%
CCn1c(SCC(N)=O)nnc1-c1ccco1	-4%
Cc1cc(C(=O)Nn2cnnc2)cs1	-13%
O=C(CSc1ccccc1C(=O)NCc1ccccc1)NC12CC3CC(CC(C3)C1)C2	-8%
CC(=O)C1=C(O)C(=O)N(Cc2cccnc2)C1c1ccc(C)cc1 (centres undefined)	-22%
CCCC(=O)OC(C(=O)Nc1cc(C(F)(F)F)ccc1Cl)c1ccccc1 (centres undefined)	-6%
CCOC(=O)c1sc2nc(C3CC3)cc(-c3ccc(OC)cc3)c2c1N	?
Clc1cc(Sc2ccc(Br)cc2)nnc1-c1ccccc1	-21%
O=P(OC1CCCCC1)(OC1CCCCC1)C(O)c1ccccc1 (centres undefined)	-9%
O=C(CSc1nnc2c(Cl)cc(Cl)cn12)N1CCOCC1	-5%
c1ccc(-n2c(SCc3nc(-c4cccs4)no3)nnc2-c2ccco2)cc1	32µM*
COc1ccc(S(=O)(=O)Nc2cc(C)nn2-c2ccccc2)cc1	-6%
S=C(NC1CCCCC1)NN(c1ccccc1)c1ccccc1	0%
Cc1ccc(NC(=S)NCc2cccn2C)cc1	-28%
COc1cc(-n2nnnc2SCC(=O)N2CCN(c3ccc(F)cc3)CC2)c(OC)cc1Cl	-16%
COc1ccc(S(=O)(=O)CCC(=O)NCCc2cccc(C)c2)cc1	-11%
O=C(N/C(=C\c1cccnc1)c1nc2ccccc2[nH]1)c1cccc(Br)c1	-5%
Clc1ccc(-c2cc(COc3ccc4ccccc4c3)no2)cc1	-7%

By substructure, the compounds so far containing a tert-butyl group.
SMILES	HPGD block
CC(C)(C)Sc1ccc2nc3c(n2c1)CCCC3	?
C[C@@H]1C(=O)O[C@H]2[C@@H](O)[C@@]34[C@H]5CC(C(C)(C)C)[C@]36[C@@H](OC(=O)[C@@H]6O)O[C@@]4(C(=O)O5)[C@@]12O (some centres undefined)	0%
CC(O)COC(C)(C)C (centres undefined)	-8%
CCCCN(CCCC)C(=S)NC(=O)C(C)(C)C	-3%

An excerpt; rates above refer to the full screens.
